HPGD block – qHTS Assay for Inhibitors of HPGD (15-Hydroxyprostaglandin Dehydrogenase); 15-hydroxyprostaglandin dehydrogenase [NAD(+)] (Homo sapiens), P15428; purified HPGD, NADH fluorescence kinetic, PGE2 substrate; Potency, µM, inactives show top-dose activity change, negative = inhibition, hits mostly inhibitors; 4.3% of 150,000 active; AID 894, 2007; active = well fitted inhibition curve with a large enough effect (not every such curve was filed as active); inconclusive = small, poorly fitted or top-dose-only effect, or another doubt; inactive = no such curve, though single readings can be large or run the other way;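 further: top concentration of the series not given in the record; plate controls included wells without enzyme; inactives centre near -10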
Target sequence (P15428 whole entry, looked up): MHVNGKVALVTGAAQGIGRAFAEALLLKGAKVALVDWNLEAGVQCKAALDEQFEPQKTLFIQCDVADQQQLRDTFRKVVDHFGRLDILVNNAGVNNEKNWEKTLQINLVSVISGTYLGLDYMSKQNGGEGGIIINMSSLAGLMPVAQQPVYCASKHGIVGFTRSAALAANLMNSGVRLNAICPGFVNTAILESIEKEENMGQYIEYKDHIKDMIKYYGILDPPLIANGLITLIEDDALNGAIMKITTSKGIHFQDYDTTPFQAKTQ
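NADH formation kinetics: reaction with 30 uM PGE2 and 1 mM NAD+ (final), 20 nM enzyme, Tris-HCl pH 8 with Tween 20, after 15 min compound preincubation at room temperature. Fluorescence change, last versus first of five reads.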
* marks the source's active call; other numbers are inactive results; ? = inconclusive; & = joins results of further samples. On the % scale 0 is the no-effect control and ±100 the full control effect; potency means the concentration at half of the fitted maximal effect. The list is partial; the hit share may differ from the screen's.

compound	HPGD block
O=C(Nc1sc2c(c1C(=O)NCC1CCCO1)CCCC2)c1cccs1 (configuration not stated)	-28%
Cc1ccc2oc3c(c(=O)c2c1)C(c1cccs1)N(CCCN(C)C)C3=O (configuration not stated)	?
CCN(CC)CCN1C(=O)C(=O)/C(=C(/O)c2ccncc2)C1c1ccccc1 (configuration not stated)	-14%
O=C(Nc1ccccc1Cl)N(Cc1nc2ccccc2c(=O)[nH]1)Cc1cccs1	-5%
CC(C)CC(=O)N1CCN(S(=O)(=O)c2ccccc2)CC1	-11%
CSc1nc(N)c(C#N)c(-c2ccccc2Cl)c1C#N	?
Cn1c(CCc2ccccc2)nnc1SCC(=O)N1CCCC1	-24%
Cc1nnc(NC(=O)CCC(=O)N2CCC(C)CC2)s1	-26%
Cc1ccc(NC(=O)Cc2nnc(SCC(=O)Nc3ccccc3)n2C)cc1	-4%
COC(=O)c1ccccc1S(=O)(=O)N1Cc2cc([N+](=O)[O-])ccc2Oc2ccccc21	-11%
CCOC(=O)Cc1c(C)nc2c(-c3ccc(Cl)cc3)c[nH]n2c1=O	?
Cc1ccc(N(CCC(=O)Nc2nnc(C3CC3)s2)S(=O)(=O)c2ccccc2)cc1	-4%
CCCOP(=O)(c1ccc(N(C)C)cc1)C(O)c1cccnc1 (configuration not stated)	-3%
O=C1CN(C(=O)c2ccc(Br)o2)C(c2ccccc2)c2cc(F)ccc2N1 (configuration not stated)	-6%
COc1ccc(NC(=O)Nc2ccc(N(C)C)cc2)cc1	-6%
O=C(O)C1CCC(=O)N1C1CCCC1 (configuration not stated)	-6%
Nc1c(S(=O)(=O)c2cccc(Cl)c2)c2nc3ccccc3nc2n1CCN1CCOCC1	?
CCOC(=O)c1ccc(N2C(=O)CC(C3CCCO3)C2=O)cc1 (configuration not stated)	-1%
Cc1ccc(N(CC(=O)NCC2CCCO2)S(C)(=O)=O)cc1Cl (configuration not stated)	-13%
CCCCn1c(NC(=S)Nc2ccccc2)nc2ccccc21	-12%
C[C@@H](CN1CCC(Cc2ccccc2)CC1)[C@@H](O)c1ccc(O)cc1	-8%&0%
COC(=O)C1=C(N)Oc2cc(C)n(CC3CCCO3)c(=O)c2C1c1ccccc1 (configuration not stated)	-6%
FC(F)(F)c1cccc(NC(=S)NCC(c2cccnc2)N2CCOCC2)c1 (configuration not stated)	-13%
CCC(=O)Nc1ccccc1C(=O)N1CCN(Cc2ccccc2)CC1	-10%
O=C(CSc1nnc(-c2ccc(F)cc2)c2ccccc12)Nc1ccccc1	-9%
CC1CC(C)(C)NCCNC(C)CC(C)(C)NCCN1 (configuration not stated)	-4%
COC(=O)c1cc2sc(Cl)cc2n1CC(=O)Nc1ccc(OC)c(OC)c1OC	-4%
COc1cccc(-c2cc(=O)c3ccc(OC)cc3o2)c1	?
CCOC(=O)c1cn(Cc2cccc(Cl)c2)nn1	-6%
CCOc1ccccc1NC(=O)c1cccc(S(=O)(=O)N(Cc2ccccc2)c2ccccc2OC)c1	-15%
Cc1oc(-c2ccccc2Cl)nc1Cn1cccc1C1=NC(c2ccccc2)CO1 (configuration not stated)	-21%
O=C(O)CNc1nc(-c2ccccc2)nc2ccccc12	3%
CCCNC(=O)c1ccc(OC)cc1OC	-15%
Cn1cc(C(=O)NCN2CCCCC2)c2ccccc21	-5%
Cc1nc2ccccc2n1C(=O)c1ccccc1[N+](=O)[O-]	-20%
Cc1ccc(NS(=O)(=O)c2cc(C(=O)O)ccc2Cl)cc1C	-3%
FC(F)Oc1ccc(-c2csc(=Nc3cccnc3)n2CC2CCCO2)cc1 (configuration not stated)	-6%
O=C(NCc1cccnc1)C1CCN(S(=O)(=O)N2CCC3(CC2)OCCO3)CC1	-1%
CC(=O)Nc1ccc2c(c1)nc1n2CCOC1	-11%
CC1(C)CC(=O)C=C(NNC(=O)c2ccccc2)C1	?
CN1Cc2cccc3c2C(Cc2ccccc2S3)C1 (configuration not stated)	-6%
Cc1c(O)ccc(C(=O)CN2CCN(Cc3ccc4c(c3)OCO4)CC2)c1O	-16%
CC1CCCN(c2ccc(C(=O)OCC(=O)N3c4ccccc4Sc4ccccc43)cc2[N+](=O)[O-])C1 (configuration not stated)	-16%
CCCCCCOc1ccc(-c2ccc(C#N)cn2)cc1	?
COc1ccc(Nc2ccc3nnc(-c4ccc(Br)cc4)n3n2)cc1	0%
c1ccc(N2CCN(c3nc(-c4cccs4)nc4ccccc34)CC2)cc1	?
O=C(NCCC1=CCCCC1)c1coc(=O)c(Br)c1	-13%
CCNc1nc(Cl)nc(N(NC(C)=O)C(C)CC)n1 (configuration not stated)	-8%
OC(CC1CC12c1ccccc1-c1ncccc12)(c1ccccc1)c1ccccc1 (configuration not stated)	-1%
CCN(CC)C(=O)C1CCCN(c2ccc([N+](=O)[O-])cc2/C=N/NC(=O)c2cccc(O)c2)C1 (configuration not stated)	-26%
COc1ccc(-c2nnc(SC(=O)N3c4ccccc4Sc4ccccc43)o2)cc1	?
CC(C)CCNC(=O)NC(=O)COC(=O)/C=C/c1cnc2ccccc2n1	-7%
C=CCn1c(SCC(=O)Nc2cccc3ccccc23)nc(O)c(CC)c1=O	-9%
CCCCCCCC(=O)N/N=C(/C)c1c(O)cc(C)oc1=O	-14%
CCCCOC(=O)C1=C(C)Nc2ncnn2C1c1ccc(OC)c(OC)c1OC (configuration not stated)	0%
CCOC(=O)CCSCC(=O)N1N=C(c2cccs2)CC1c1ccc(C)cc1 (configuration not stated)	?
CC(C)Oc1ccc(C(CC(=O)NCCCN(C)C)c2ccc(F)cc2)cc1 (configuration not stated)	-4%
c1ccc(Cn2ccc(-c3cnc(-c4ccccc4)s3)n2)cc1	?
COc1cc2[nH]c3c(N4CCN(c5ccccn5)CC4)ncnc3c2cc1OC	?
CS(=O)(=O)N(CC(=O)Nc1cccc(F)c1)c1cccc([N+](=O)[O-])c1	2%

Remaining list, next part:
compound	HPGD block
CCc1ccc(OCC(=O)NC(NC(=S)Nc2ccc(C)cc2C)C(Cl)(Cl)Cl)cc1 (configuration not stated)	-8%
CC(C)N(C(=O)COc1ccc(Br)cc1Cl)C(C)C	-7%
CCCCC(=O)NC(N1CCCCC1)C(Cl)(Cl)Cl (configuration not stated)	-3%
COc1ccccc1-c1nc2n(n1)C(c1ccccc1Cl)C(C(N)=O)=C(C)N2 (configuration not stated)	-11%
C#CCn1c(S(=O)(=O)Cc2ccc(F)cc2)nc(-c2ccccc2)c1-c1ccccc1	-11%
Cc1ccccc1-n1c(SCC(=O)Nc2ccc3c(c2)OCO3)nnc1-c1ccccn1	-10%
CC1(C)CC(=O)C2=C(C1)N(c1ccccc1)C(N)=C(C#N)C2c1cccnc1 (configuration not stated)	-14%
O=C(CN1C(=O)NC2(CCCCC2)C1=O)NCc1cccs1	0%
CCCOc1c(OC)cccc1C1CC(=O)Nc2cc(OC)c(OC)c(OC)c21 (configuration not stated)	-18%
O=C1CCCCCC1C1(O)C(=O)Nc2ccccc21 (configuration not stated)	-10%
COc1ccccc1OCc1nnc(SCC(=O)NCc2ccco2)n1-c1ccccc1	?
Cc1ccc(C2=NN3C(C2)c2ccccc2OC32C(=O)Nc3ccccc32)cc1 (configuration not stated)	-24%
Cc1ccc(OCCCC(=O)Nc2ccc(Br)cc2)cc1	-2%
Cc1ccc(CCNC(=O)CN2CCN(Cc3ccccc3F)C2=O)cc1	-5%
Cn1ccnc1Sc1nnnn1-c1ccccc1	-2%
CCOC(=O)C1CCN(C(=O)c2sc3ncnc(N4CCC(C)CC4)c3c2C)CC1	-24%
COc1ccc(CC(=O)NNC(=O)c2ccoc2C)cc1OC	-6%
CCN1C(=O)N(C)C2(c3ccccc3)N(C)C(=O)N(C)C12c1ccccc1 (configuration not stated)	2%
COC(=O)c1c(-c2ccc(OC)c(OC)c2)csc1N	28µM*
Cc1c(C)n(CCC#N)c2ccc(Cl)cc12	-4%
CC(C)C(c1nnnn1C1CCCCC1)N1CCCc2ccccc21 (configuration not stated)	-10%
Cc1cc(C)n(-c2ccc(C(=O)NCc3ccc4c(c3)OCO4)cc2)n1	-11%
CC(=O)Nc1cccc(Oc2ccc(-c3noc(C)n3)cc2)c1	-23%
NC(=O)C(c1ccccc1)C1CCCC1 (configuration not stated)	-8%
O=c1c2ccccc2nc(SCc2nc3ccccc3s2)n1Cc1ccco1	-15%
O=C(Cc1ccccc1[N+](=O)[O-])Nc1ccc2c(c1)OCCO2	0%
Cc1ccc(Cn2c(SCC(N)=O)nc3c2c(=O)n(C)c(=O)n3C)cc1	-17%
CN1CCN(C(=S)c2ccc(OCC(=O)Nc3cccc(C(F)(F)F)c3)cc2)CC1	-12%
CN(C)S(=O)(=O)N(CC(=O)N(Cc1ccccc1)Cc1ccccc1)c1ccccc1	-25%
C(=C\CSc1nnnn1-c1ccccc1)/CSc1nnnn1-c1ccccc1	?

Two of the compounds above, with each value named.
Compound: Cc1cc(C)n(-c2ccc(C(=O)NCc3ccc4c(c3)OCO4)cc2)n1
- HPGD block: -11%
Compound: CCCOP(=O)(c1ccc(N(C)C)cc1)C(O)c1cccnc1 (configuration not stated)
- HPGD block: -3%

Other records follow:
compound	HPGD block
COc1ccc(/C=N/NC(=O)CCC(=O)Nc2ccccc2)cc1OC	-8%
CC1(C)NC(=O)N(CC(=O)OCC(=O)Nc2cc(S(=O)(=O)N3CCCCC3)ccc2Cl)C1=O	-7%
COc1ccc(-c2csc(NC3=NCCCCC3)n2)cc1	-27%
CC(=O)Nc1ccc(S(=O)(=O)Nc2nnc(C3CCCCC3)s2)cc1	-21%
CC(C)CC(=O)Nc1ccccc1N1CCCC1	2%
O=C(c1cnccn1)N1CCC2(CCCN(c3ccccn3)C2)CC1	-8%
CCOc1ccc(NC(=O)C(C)Sc2nnc(C)n2C)cc1 (configuration not stated)	4%
O=C(NCc1ccco1)c1cc(S(=O)(=O)N2CCCc3ccccc32)ccc1Cl	-4%
CCSCCNC(=O)c1cc(-n2cnnc2)ccc1Cl	-9%
COc1ccc(/C=C/C(=O)Oc2ccc(/C=N/NC(=O)c3ccccc3)cc2)cc1OC	-12%
CCN(CC)CCCC(C)NC1=NCCCCC1 (configuration not stated)	0%
CCOC(=O)C1CCCN(c2c(NCCN3CCCCC3CC)c(=O)c2=O)C1 (configuration not stated)	-1%
Cc1ccc(C(=O)OCc2cn3ccccc3n2)cc1	-11%
Cc1cc(C)cc(C(=O)Oc2coc(CSc3nnc(NC(=O)C4CC4)s3)cc2=O)c1	-16%
COc1cc(/C=C/C(=O)Nc2nnc(CC(C)(C)C)s2)cc(OC)c1OC	?
CCc1ccc(-c2cc(C(F)(F)F)n3nc(C(=O)Nc4c(C)nn(Cc5ccc(F)cc5)c4C)cc3n2)s1	?
Cc1nc2ccccc2c2c1C(=O)N(Cc1cccnc1)C2=O	-7%
O=C1OC(c2cccs2)=N/C1=C\c1ccc(-c2ccccc2Cl)o1	?
COCC(C)OC(=O)c1c(N)n(CC(C)C)c2nc3ccccc3nc12 (configuration not stated)	?
Cc1ccc2nc(-c3ccccn3)cc(C(=O)NC3CCN(C)CC3)c2c1	?
COc1ccc(C(=O)c2ccc(N3CCN(C4CC(=O)NC4=O)CC3)cc2)cc1F (configuration not stated)	?
CCOC(=O)Cn1cnc2c(nnn2-c2ccc(C)cc2)c1=O	-21%
COc1ccc(CNC(=O)CN(Cc2ccc(C)cc2)S(=O)(=O)c2ccc(Cl)cc2)cc1	-8%
Cc1cc(C)nc(NC(=O)/C=C/c2ccc3c(c2)OCO3)c1	?
COC(=O)c1ccc(Oc2nc(C(N)=O)cc(-c3ccccc3)n2)cc1	?
CCOC(=O)c1cc(-c2cccs2)nn1CCC#N	-14%
CCCCCCC(=O)Nc1nc(C)c(-c2csc(Nc3cc(Cl)ccc3OC)n2)s1	-22%
Cc1nc(SCc2ccccc2)c(C(F)(F)F)c(=O)[nH]1	-13%
COc1ccc(-c2nnc(CSc3ncnc4sc5c(c34)CCC5)o2)cc1OC	?
Nc1ncc(-c2cc3ccccc3oc2=O)s1	-10%
CCN(Cc1ccccc1)C(=O)CC1Oc2ccccc2NC1=O (configuration not stated)	-11%
Cc1nn(CCC(=O)O)c(C)c1C	-6%
O=S(=O)(CCc1ccccc1)/N=C/c1cccs1	-17%
COc1cccc(NC(=O)CSc2nnc(-c3cc(C)n(-c4ccccc4)c3C)o2)c1	-14%
Cc1c(NC(=O)COC(=O)c2ccc[nH]c2=O)c(=O)n(-c2ccccc2)n1C	-10%
Cc1ccc(S(=O)(=O)N2CCCC2C(=O)N(C)Cc2cccs2)cc1 (configuration not stated)	-4%
CCn1cc(C(C)(C)C)c(C#N)c1NC(C)=O	-1%

Records above marked active in HPGD block.
compound	HPGD block
COC(=O)c1c(-c2ccc(OC)c(OC)c2)csc1N	28µM*

An excerpt from above in order of molar mass, low to high:
compound	HPGD block
Cc1nn(CCC(=O)O)c(C)c1C	-6%
CCn1cc(C(C)(C)C)c(C#N)c1NC(C)=O	-1%
O=S(=O)(CCc1ccccc1)/N=C/c1cccs1	-17%
COc1cccc(NC(=O)CSc2nnc(-c3cc(C)n(-c4ccccc4)c3C)o2)c1	-14%

Screens: PubChem BioAssay, National Center for Advancing Translational Sciences (NCATS)
